RE007 growth inh – less growth of the S. pombe RE007 Vpr strain | 0.21% of 360,000 active | Potency, µM (highest dose often 92.2 µM), for inactives: top-dose activity change, negative = less growth | S. pombe RE007 Vpr strain, BacTiter-Glo ATP luminescence, 24 h; control for the full effect not named in the record; active = well fitted falling curve with a large enough effect; inconclusive = small, poorly fitted or top-dose-only effect; inactive = no such curve, though single readings can be large or run the other way;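 further: on the % scale 0 is the no-effect control and ±100 the full control effect; nearly all actives have a fitted effect of over 50% in size; the assay follows cell death caused by Vpr and the record does not say whether a fall means rescue or toxicity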
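Fission yeast strain RE007, carrying one chromosomally integrated HIV-1 vpr copy, was seeded at OD 0.01 in PMG+AL medium with 23 nL pinned compound. After 24 h at 30 °C and 99% humidity, viability was read by BacTiter-Glo luminescence.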
2A StopGo – lowers the luciferase signal of an FMDV 2A StopGo reporter; human cells with a luciferase reporter of 2A StopGo recoding; control for the full effect not named in the record; Potency, µM (titrated, usually from 57.9 µM), for inactives: at the highest dose signal change, negative = less light; 1.2% of 410,000 active; active = well fitted falling curve with a large enough effect; inconclusive = small, poorly fitted or top-dose-only effect; inactive = no such curve, though single readings can be large or run the other way; tested in HEK293T cells; further: on the % scale 0 is the no-effect control and ±100 the full control effect; nearly all actives have a fitted effect of over 45% in size; luciferase light after 4 h
NS1 function inh – blocks influenza NS1 protein function | S. cerevisiae slowed by influenza A NS1, growth recovery by OD600 | Potency, µM (series often up to 46.1 µM), inactives show top-dose activity, positive = more growth | 0.4% of 270,000 active; active means well fitted rising curve with a large enough effect; inconclusive means small, poorly fitted or top-dose-only effect; inactive means no such curve, though single readings can be large or run the other way; further: nearly all actives have a fitted effect of over 50% in size
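S. cerevisiae expressing influenza A NS1, grown in glucose, washed, then diluted 1:100 into pH 6.0 -URA galactose medium with 23 nl compound. Growth recovery read as OD600; NS1-free strain serves as control.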
LASV entry inh – Lassa virus entry inhibition | Potency, µM (titrated, usually from 37.9 µM), for inactives: top-dose activity change, negative = inhibition, most hits filed as inhibitors | 1.2% of 300,000 active | Lassa virus pseudotype entry inhibition, cell reporter; control for the full effect not named in the record; active means well fitted inhibition curve with a large enough effect; inconclusive means small, poorly fitted or top-dose-only effect, or effect the other way; inactive means flat fitted curve, though single readings scatter; tested in HEK293 cells; further: on the % scale 0 is the no-effect control and ±100 the full control effect; nearly all actives have a fitted effect of over 50% in size; luciferase read-out
Marburg entry inh – blocks Marburg virus binding to or entry into cells. 1.8% of 300,000 active. AID 540276. Marburg virus pseudotyped entry inhibition, cell reporter; control for the full effect not named in the record; about a third of the inactives were read at about 46 µM. Potency, µM (series often up to 37.8 µM), without a hit: at the top dose activity change, negative = inhibition, usual class: inhibitors; active = well fitted inhibition curve with a large enough effect; inconclusive = small, poorly fitted or top-dose-only effect, or effect the other way; inactive = flat fitted curve, though single readings scatter; tested in HEK293 cells; about a fifth of its hits are not listed in these tables; further: on the % scale 0 is the no-effect control and ±100 the full control effect; luciferase read-out
Cruzain Triton – blocks cruzain activity in presence of Triton detergent; P25779; purified cruzain, Z-FR-AMC fluorescence, 0.01% Triton; Potency, µM, inactives show max response, negative = inhibition, actives largely listed as inhibitors; AID 1478; 0.43% of 200,000 active;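 further: plate controls were neutral wells for no effect and buffer without enzyme for full effect; nearly all actives have a fitted effect of over 40% in size; top concentration of the series not given in the record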
Target sequence (P25779 123-467 limits assumed): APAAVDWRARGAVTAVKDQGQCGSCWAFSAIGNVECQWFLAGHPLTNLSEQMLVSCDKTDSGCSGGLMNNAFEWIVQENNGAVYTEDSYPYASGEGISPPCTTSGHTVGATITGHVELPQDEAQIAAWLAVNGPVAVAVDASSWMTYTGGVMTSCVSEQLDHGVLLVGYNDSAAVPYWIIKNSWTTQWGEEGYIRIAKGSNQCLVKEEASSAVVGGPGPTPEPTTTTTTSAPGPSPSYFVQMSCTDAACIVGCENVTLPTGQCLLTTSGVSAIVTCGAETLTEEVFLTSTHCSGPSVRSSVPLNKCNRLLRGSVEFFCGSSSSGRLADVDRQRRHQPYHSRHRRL
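Detergent-containing arm of a paired screen for aggregation-based inhibition: 0.01% Triton X-100 present. Cruzain at 1.5 nM cleaved 2 uM Z-FR-AMC at pH 5.5 with 5 mM DTT; AMC fluorescence gain over 60 s measured activity.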
SARS PLP yeast – inhibitors of SARS-CoV papain-like protease in yeast; AID 485353; Potency, µM (highest dose often 32.9 µM), for inactives: at the top dose activity, positive = growth rescue; 0.19% of 330,000 active; S. cerevisiae expressing SARS-CoV PLpro, growth rescue; control for the full effect not named in the record; active means well fitted rising curve with a large enough effect; inconclusive means small, poorly fitted or top-dose-only effect; inactive means no such curve, though single readings can be large or run the other way; further: 0% is about no effect; nearly all actives have a fitted effect of over 55% in size; growth read by luminescence after 48 h
Cruzain inh noDet – blocks cruzain activity in detergent-free assay; 2.3% of 200,000 active; AID 1476; Potency, µM, inactives show max response, negative = inhibition, usual class: inhibitors; purified cruzain, Z-FR-AMC fluorescence, no detergent; P25779;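 further: plate controls were enzyme without inhibitor for no effect and buffer without enzyme for full effect; nearly all actives have a fitted effect of over 40% in size; top concentration of the series not given in the record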
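Detergent-free condition (0.00005% Triton X-100) in acetate buffer pH 5.5 with DTT. 1.5 nM enzyme and compound were pre-mixed 15 min, then 2 uM Z-FR-AMC substrate added; reaction progress from fluorescence change between first and third reads (60 s).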
Starred values were filed as active, the others as inactive; ? = inconclusive; / = not tested or not shown; & = joins results of further samples; [ ] = another dose, or the depositor's remark. Unless noted, the call rests on the fitted dose curve; in most records, active means well fitted curve in the direction sought with a large enough effect; inconclusive means small, poorly fitted or top-dose-only effect, or another doubt; inactive means no such curve, though single readings can be large; an effect the other way counts as inactive or inconclusive. Potency means the concentration at half of the fitted maximal effect. Not a hit list; 4.5% or so of the library scored in one or more.

SMILES	RE007 growth inh	2A StopGo	NS1 function inh	LASV entry inh	Marburg entry inh	Cruzain Triton	SARS PLP yeast	Cruzain inh noDet
Cc1cccc(C)c1NS(=O)(=O)c1ccc2c(c1)[C@H]1C=CC[C@H]1[C@@H](c1ccc(Cl)cc1)N2	/	-11%	/	0%[46.1 µM]	17%[46.1 µM]	-9.5%	/	?
COC(=O)Nc1ccc2c(c1)Nc1ccccc1CC2	14%	22%	-17%	5%[46.1 µM]	?	/	-9%	/
O=C(CSc1ccc(-c2ccc(F)cc2)nn1)Nc1ccc2c(c1)OCCO2	3%	4%	6%	-11%	27%	-8.4%	-1%	-5%
Cc1ccc(CCNC(=O)c2c(C)oc3nc(C)nc(N4CCOCC4)c23)cc1	/	-8%	/	-17%[46.1 µM]	/	-2.4%	/	-7%
CCn1ccc2cc(OC)ccc2c1=S	-17%	6%	-4%	10%	-11%	1.2%	8%	-4%
O=C(Nc1ccc(Cl)cc1)Nc1ccccc1Sc1ncc([N+](=O)[O-])s1	-24%	-13%	-43%	/	/	/	-10%	/
O=C(NCCCO)NC12CC3CC(CC(C3)C1)C2	5%	-2%	-2%	-10%	10%	9.9%	14%	7%
C=CCn1c(C)cc(C(=O)COC(=O)/C=C/c2ccc(OC)cc2)c1C	-20%	1%	/	-24%	22%	/	-4%	/
O=C1NC(=O)N(c2ccc3c(c2)OCO3)C(=O)/C1=C\c1ccc(N2CCCCC2)o1	-8%	-14%	19%	-10%	-14%	-16%	-5%	-20%
O=C(CNS(=O)(=O)c1cccs1)N1CCCC1	3%	6%	5%	-2%	?	2.9%	?	3%
COc1ccccc1CNc1nc2nc(C)c(C)c(=O)n2[nH]1	-9%	4%	?	-1%	4%	-3.1%	9%	-3%
CCOC(=O)CNC(=O)CSc1nnc(NC(=O)c2ccccc2Cl)s1	-16%	47%[activator]	1%	-5%	-7%[46.1 µM]	/	-1%	/
COc1cccc(C(N)=O)c1OC(=O)Cc1ccccc1F	-23%	9%	-48%	10%[46.1 µM]	-7%[46.1 µM]	/	-7%	/
Cc1ccn(CC(=O)NC2CCCN(Cc3ccc(CC(C)C)cc3)C2)n1 (stereo not drawn)	-11%	-18%	-7%	/	/	/	3%	/
CN(CC(=O)O)c1ccc(C(F)(F)F)cc1[N+](=O)[O-]	-13%	-12%	5%	-1%	3%[46.1 µM]	/	0%	/
CN1/C(=C\C=Nc2cc(S(=O)(=O)N3CCOCC3)ccc2N2CCOCC2)C(C)(C)c2ccccc21	-13%	-15%	-2%	-7%	-13%[46.1 µM]	-11%	-6%	0%
CCCCNC(=S)N(CCN(C)C)Cc1cc2cc3c(cc2[nH]c1=O)OCCO3	-10%	1%	-1%	-22%[46.1 µM]	?	/	4%	/
Cc1ccc(CNc2oc(-c3ccco3)nc2S(=O)(=O)c2ccccc2)cc1	5%	14%	-11%	-8%	-6%	?	-46%	32µM*
CCCCc1c(C)c2cc(C)ccc2[nH]c1=O	11%	17%	-24%	6%	9%	-5.2%	1%	?
CN(C)c1ccc(NC(=O)CN2C(=O)CN=C(c3ccccc3)c3ccccc32)cc1	12%	?	-15%	?	9%	1.3%	-5%	-10%
Cc1cc(C)c2cc(C#N)c(N3CCCN(C(=S)NCCCN(C)C)CC3)nc2c1	-20%	-20%	0%	17%[46.1 µM]	?	/	2%	/
Cc1cccc(NC(=O)CN(c2ccc(F)cc2)S(C)(=O)=O)c1	14%	0%	-2%	/	/	/	-2%	/
O=C(N/N=C/c1cc([N+](=O)[O-])ccc1O)c1ccc(COc2ccc3c(c2)CCC3)o1	-1%	?	7%	?	?	/	2%	/
CCOC(=O)c1nc2ccccc2s1	-23%	101%[activator]	-12%	?	?	0.3%	3%	3%
O=C(NCc1cccnc1)NC(C(F)(F)F)C(F)(F)F	12%	-19%	4%	5%	2%	-1.7%	-2%	2%
COC(=O)[C@@]1(Cc2ccccc2)C=C[C@@H](C)N1C(C)=O	5%	0%	/	/	/	2.7%	/	-8%
CC(=O)Nc1ccc(NS(=O)(=O)c2ccc3[nH]c4c(c3c2)CCCCC4)cc1	/	24%	/	4%[46.1 µM]	/	-11%	/	-30%
CCOC(=O)N1CCN(C(=O)CN2C(=O)COc3ccc(C(C)(C)C)cc32)CC1	1%	/	-25%	6%	-1%	4.2%	4%	9%
N#Cc1cnn2c3c(cnc12)C(=O)N1CCc2ccccc2C1C3 (stereo not drawn)	-14%	-16%	/	-1%	-7%[46.1 µM]	/	-6%	/
CCOC(=O)c1sc2ncn(C(CC)C(=O)OC)c(=O)c2c1C (stereo not drawn)	-3%	-11%	-62%	-11%	12%	-3.0%	-6%	3%
O=C(CC(=O)Nc1ccc(Br)cc1)Nc1ccc(Br)cc1	-9%	3%	-3%	/	/	/	-1%	/
Cc1cccc(CNC(=O)Cn2nc(C)n3c(cc4cc(F)ccc43)c2=O)c1	/	9%	/	/	7%[46.1 µM]	0.5%	/	-11%
Cc1ccc(/C=N/NC(=O)c2ccoc2C)s1	-18%	7%	-13%	?	-1%	-4.8%	-14%	-4%
CCCCNCc1cc(Br)c(OCc2cccs2)c(OC)c1	11%	-27%	-10%	?	?	1.7%	2%	17%
COc1cccc(N2C(=O)CSC23C(=O)N(CC(=O)Nc2cc(C)ccc2C)c2ccccc23)c1 (stereo not drawn)	/	-15%	/	-20%[46.1 µM]	/	-4.0%	/	14%
CCOc1ccc(C2CC(c3ccccc3)Nc3nc(N)nn32)cc1 (stereo not drawn)	2%	-6%	10%	9%	1%	3.0%	-3%	-1%
CC(C)(C)NC(=O)/C(=C/c1cccnc1)NC(=O)c1ccco1	1%	-3%	1%	/	/	/	-1%	/
Cc1cccc(/C(N)=N/OC(=O)COc2ccccc2Cl)c1	9%	45%[activator]	-1%	5%	?	-5.8%	10%	-5%
Cc1ccc(-c2cc3c(N4CCN(c5cc(C)ccc5C)CC4)nccn3n2)cc1	/	-20%	/	?	?	-3.6%	/	-20%
Cc1cc(SCC(=O)NC(=O)c2cccn2C)nc2ccccc12	20%	-13%	-15%	/	/	/	0%	/
COc1ccc2nc3ccccc3nc2c1NC(=O)c1ccc(Br)cc1	-8%	0%	8%	-2%	?	-1.5%	19%	4%
CCCn1nnc(NC(=O)c2ccc(Br)cc2)n1	5%	68%[activator]	-8%[9.22 µM]	-1%	3%	3.4%	0%	-3%
Cc1cccc(C)c1NC(=O)Cn1nc(-c2ccc(Cl)s2)ccc1=O	-3%	-10%	6%	-26%[46.1 µM]	-27%[46.1 µM]	/	-5%	/
CC(C)COc1ccc(C(=O)Nc2ncn[nH]2)cc1	26%	51%[activator]	-9%	0%	-6%	/	/	/
CCCCN(C(=O)C1=CC=CN2CCS(=O)(=O)N=C12)c1ccccc1	0%	-3%	/	-10%	8%	/	-1%	/
Cn1nc2sc3ccccc3n2c(=O)c1=O	-10%	-14%	4%	-21%	?	/	0%	/
Cc1nn2c(=O)c3c4c(sc3nc2n1-c1ccccc1)COC(C)(C)C4	-5%	9%	-1%	/	-2%	/	1%	/
CC(=O)N1CCN(c2ccccc2NC(=O)COc2cc(C)ccc2C(C)C)CC1	10%	?	-18%	?	?	-6.3%	-5%	?
COCc1cc(C)n(CC(=O)Nc2ccc(N3CCOCC3)cc2)c(=O)c1C#N	-26%	-17%	/	16%	0%	/	-3%	/
COc1ccc(N2CC(C(=O)OCC(=O)c3ccccc3)CC2=O)cc1 (stereo not drawn)	-4%	-2%	-1%	?	?	0.8%	-2%	-5%
CCCCCCn1c(O)c(/C=N/N2CCCCCC2)c(=O)[nH]c1=O	-2%	-2%	0%	?	-2%[46.1 µM]	/	-1%	/
CC(C)(C)N(Cc1ccccc1)C(=O)CN1C(=O)c2ccccc2C1=O	5%	12%	-2%	17%[46.1 µM]	-6%[46.1 µM]	/	-1%	/
CN(CC(=O)Nc1cccc2ccccc12)C(=O)c1ccc(NC(=O)CC#N)cc1	-7%	7%	/	18%[46.1 µM]	10%[46.1 µM]	/	-1%	/
CCCCN(CC)CCCNC(=O)c1ccc(CS(=O)(=O)c2c(Cl)cccc2Cl)o1	-3%	-4%	-1%	-5%[46.1 µM]	?	/	1%	/
O=C(NC(=S)N1CCN(c2ccc(O)cc2)CC1)c1ccco1	0%	13%	/	-18%	-8%	/	-3%	/
Cc1noc(C(=O)Nc2cccnc2Cl)c1Cl	7%	7%	-2%	7%[46.1 µM]	-8%[46.1 µM]	/	-2%	/
COc1ccc(NC(=O)C2CC(=O)OC2c2ccccc2)cc1 (stereo not drawn)	1%	-11%	4%	4%	?	1.0%	-7%	6%
COc1ccc(OC)c(NC(=O)NCCCCc2ccccc2)c1	-3%	-23%	-19%	-8%	-3%	/	3%	/
Cc1cccc(C)c1NS(=O)(=O)c1ccc(-c2cnc(C3CC3)o2)cc1	-8%	?	-73%	/	/	/	-17%	/
O=C(COc1ccccc1Cl)NCc1ccco1	-9%	64%[activator]	-6%	17%	?	-1.0%	-2%	3%
The list goes on:
SMILES	RE007 growth inh	2A StopGo	NS1 function inh	LASV entry inh	Marburg entry inh	Cruzain Triton	SARS PLP yeast	Cruzain inh noDet
COc1ccc(NC(=O)c2cccn2-c2nnc(N3CCCCC3)s2)cc1	/	14%	/	14%[46.1 µM]	/	4.2%	/	-24%
COc1ccccc1NC(=O)C(=O)NCCC1CCCCN1S(=O)(=O)c1ccc(F)cc1 (stereo not drawn)	-11%	20%	/	?	?	/	6%	/
COc1cccc(CNC(=O)CCS(=O)(=O)c2ccc3c(c2)CC(C)N3C(=O)C2CC2)c1 (stereo not drawn)	-4%	-12%&-8%	-11%	3%[46.1 µM]	/	-3.4%	-2%	11%
O=C(Nc1ccccc1)OCCOc1ccc(Br)cc1	-14%	-23%	-1%	/	/	/	-1%	/
COc1ccccc1NC(=O)Cc1csc(NC(=O)c2ccccc2)n1	8%	?	-3%	?	-28%	/	-1%	/
COc1ccc(-c2ccc(NS(=O)(=O)c3ccc(OC)c(OC)c3)cc2)nn1	/	24%	/	-14%[46.1 µM]	/	-3.2%	/	-2%
COc1ccc(C(=O)O)cc1S(=O)(=O)Nc1ccccc1Cc1ccccc1	6%	-8%	18%	/	1%[46.1 µM]	/	0%	/
Cc1oc2c(c(C)cc3oc(=O)c(CC(=O)NCc4ccccc4)c(C)c32)c1C	/	9%	/	21%[46.1 µM]	5%[46.1 µM]	-0.4%	/	1%
COC(=O)c1ccc(CS(=O)(=O)c2ccc(F)cc2)o1	2%	-2%	2%	/	/	/	-4%	/
